Compound activity deposited in PubChem BioAssay by several laboratories.
Mtb growth – M. tuberculosis H37Rv growth inhibitors, H37Rv strain (AID 1626). 0.95% of 220,000 active. M. tuberculosis H37Rv growth inhibition; higher % means a stronger effect. inhibition, % at 10 µM; hits with a dose series show IC50 in µM;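 active = confirmed in a dose series; inconclusive = inhibition above 80% but not taken into the dose series; inactive = below 80% or under 30% at every dose of the series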;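 note: bacteria incubated seven days before Alamar blue readout; 0% = bacteria only wells and 100% = bacteria with antibiotic wells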
YopH inh – YopH (Yersinia) phosphatase inhibition; fluorescence Ex485/Em525; inhibition, %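 (about 10 µM by stock and volumes)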; 0.16% of 140,000 active;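 active = inhibition of 50% or more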;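 note: controls were vehicle for no effect and minimum signal wells for full effect; inactives centre near -20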
Arbovirus inh – blocks arbovirus infection; inhibition, % at 10 µM; arbovirus infection cell-based antiviral screen; 0.37% of 200,000 active;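 active = inhibition from about 30%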;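 note: bluetongue infection of BSR cells; cell survival read as ATP light after 72 h; 0% = infected wells without compound and 100% = uninfected wells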
Mtb betalactam – beta-lactam sensitization of Mtb H37Rv; M. tuberculosis H37Rv growth with meropenem, percent inhibition; hits of this screen are not shown here; inhibition, % at 25 µM; 0.27% of 330,000 active;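 active = about 74% or more and at least 40 points above the plate without the antibiotic, then above 30% in a dose series; inconclusive = first-round hits that could not be retested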;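 note: growth measured after seven days incubation then overnight dye step; 0% = bacteria only wells and 100% = bacteria with antibiotic; twin plates without the antibiotic show which effects depend on it; some results filed as inactive read as strong as hits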
RecA intein inh – inhibitors of M. tuberculosis RecA intein splicing | P9WHJ3 | cell-free RecA intein splicing, fluorescence | inhibition, %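 (about 9 µM by stock and volumes)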 | 0.75% of 290,000 active | AID 2221; in the data active = inhibition above about 30%; inconclusive = no clear call, values can overlap the other calls;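 note: 0% = vehicle wells and 100% = reference inhibitor control wells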
Target sequence (P9WHJ3 whole entry, looked up): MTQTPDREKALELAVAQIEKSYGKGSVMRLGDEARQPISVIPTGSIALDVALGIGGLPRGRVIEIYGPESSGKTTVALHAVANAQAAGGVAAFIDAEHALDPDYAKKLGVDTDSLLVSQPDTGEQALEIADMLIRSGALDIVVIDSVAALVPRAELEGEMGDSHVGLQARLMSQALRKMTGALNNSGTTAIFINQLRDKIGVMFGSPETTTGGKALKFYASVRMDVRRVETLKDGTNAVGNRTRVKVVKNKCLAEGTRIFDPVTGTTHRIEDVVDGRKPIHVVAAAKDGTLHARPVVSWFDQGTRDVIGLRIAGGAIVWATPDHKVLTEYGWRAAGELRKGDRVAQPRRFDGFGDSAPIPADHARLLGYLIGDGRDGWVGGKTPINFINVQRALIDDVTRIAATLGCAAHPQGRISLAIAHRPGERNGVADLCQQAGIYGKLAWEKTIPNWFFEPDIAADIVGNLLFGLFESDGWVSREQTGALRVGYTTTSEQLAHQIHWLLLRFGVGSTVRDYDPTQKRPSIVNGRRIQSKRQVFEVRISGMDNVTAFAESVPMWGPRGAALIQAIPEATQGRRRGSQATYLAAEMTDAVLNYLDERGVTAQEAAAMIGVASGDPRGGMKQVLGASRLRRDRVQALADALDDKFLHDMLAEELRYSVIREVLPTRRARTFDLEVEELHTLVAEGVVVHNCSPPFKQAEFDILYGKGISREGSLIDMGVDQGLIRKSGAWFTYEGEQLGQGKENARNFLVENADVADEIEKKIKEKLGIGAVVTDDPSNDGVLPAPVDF
Arbovirus inh repeat – further read-out of Arbovirus inh, marked with its call; inhibition, %; measured here: 10K subset replicate screen; many hits read low in the repeat;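 first of two repeat runs on a subset; 0% = infected and 100% = uninfected wells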
* hit, by the source's call; ? = inconclusive; nt = not tested or not shown. This is a subset, so the mix of outcomes need not match the whole.

Start of the data: the first 17 entries, ahead of the listing:
SMILES	Mtb growth	YopH inh	Arbovirus inh	Mtb betalactam	RecA intein inh	others
Cc1ccc(-c2nc(NC(=O)c3ccc(S(=O)(=O)N(CCC#N)CCC#N)cc3)sc2-c2ccccc2)cc1	9.2%	-9.6	-6.8	11.3	-12.8
CNC1=CC(=O)CC(c2ccccc2)C1 (centres undefined)	-4.4%	nt	-3.1	4.6	1.2
CCOC(=O)Cn1cnc2c(cnn2-c2ccc(OC)cc2)c1=O	nt	nt	nt	-4.0	0.5
COc1nccnc1NS(=O)(=O)c1ccc(NC(=S)NC(=O)c2ccc(F)cc2)cc1	0.8%	-19.3	1.6	-3.0	-0.4
O=C(Nc1c[nH]c(=O)[nH]c1=O)c1ccccc1Br	nt	nt	nt	1.8	-0.9
CC(C)Oc1cccc(C(=O)C2CCCN(C3CCOCC3)C2)c1 (centres undefined)	-6.0%	nt	-15.7	-5.7	1.5
CCN1CCN(C(=O)CN(c2ccc(F)c(Cl)c2)S(C)(=O)=O)CC1	-7.2%	nt	2.3	-0.4	0.4
CCCCn1c(N)c(N(CC(C)C)C(=O)COC(=O)Cc2cccc(OC)c2)c(=O)[nH]c1=O	nt	nt	nt	-5.0	-1.8
Nn1c(SCC(=O)Nc2ccc3c(c2)OCO3)nncc1=O	-4.3%	nt	-5.1	-0.2	-2.1
Cc1ccc(S(=O)(=O)N2CCOCC2)cc1NC(=O)CSc1ccc(Cl)cc1	nt	nt	nt	0.3	1.6
O=C(/C=C/c1ccc(F)cc1)N1CCCc2ccccc21	-3.4%	nt	-5.0	-2.7	3.4
COc1cccc(OC)c1NC(=O)C1CCCN1C(=O)NCc1ccccc1 (centres undefined)	0.8%	-25.5	9.3	-3.3	-2.8
CC(C)(C)C(=O)Nc1ccnn1C1CCN(C(=O)c2cccc(Cl)c2)CC1	nt	nt	nt	?	-0.2
CC(=O)Nc1ccc2nc(NC(=O)c3ccc([N+](=O)[O-])o3)sc2c1	nt	nt	nt	44.5	-6.7
O=C(C[C@H]1C(=O)N(c2ccc(F)c(F)c2)C[C@@H]1Cc1ccccc1)Nc1ccccc1	nt	nt	nt	-8.2	6.3
COc1ccccc1N1CCN(S(=O)(=O)CCNC(=O)c2cc(OC)c(OC)c(OC)c2)CC1	nt	nt	nt	4.6	1.5
O=C(C1CCCN1S(=O)(=O)c1ccc(Cl)c(Cl)c1)N1CCOCC1 (centres undefined)	1.7%	-3.0	2.0	8.9	-3.2

The listing, from the first entry:
SMILES	Mtb growth	YopH inh	Arbovirus inh	Mtb betalactam	RecA intein inh	others
Cc1ccc(-c2nc(NC(=O)c3ccc(S(=O)(=O)N(CCC#N)CCC#N)cc3)sc2-c2ccccc2)cc1	9.2%	-9.6	-6.8	11.3	-12.8
CNC1=CC(=O)CC(c2ccccc2)C1 (centres undefined)	-4.4%	nt	-3.1	4.6	1.2
CCOC(=O)Cn1cnc2c(cnn2-c2ccc(OC)cc2)c1=O	nt	nt	nt	-4.0	0.5
COc1nccnc1NS(=O)(=O)c1ccc(NC(=S)NC(=O)c2ccc(F)cc2)cc1	0.8%	-19.3	1.6	-3.0	-0.4
O=C(Nc1c[nH]c(=O)[nH]c1=O)c1ccccc1Br	nt	nt	nt	1.8	-0.9
CC(C)Oc1cccc(C(=O)C2CCCN(C3CCOCC3)C2)c1 (centres undefined)	-6.0%	nt	-15.7	-5.7	1.5
CCN1CCN(C(=O)CN(c2ccc(F)c(Cl)c2)S(C)(=O)=O)CC1	-7.2%	nt	2.3	-0.4	0.4
CCCCn1c(N)c(N(CC(C)C)C(=O)COC(=O)Cc2cccc(OC)c2)c(=O)[nH]c1=O	nt	nt	nt	-5.0	-1.8
Nn1c(SCC(=O)Nc2ccc3c(c2)OCO3)nncc1=O	-4.3%	nt	-5.1	-0.2	-2.1
Cc1ccc(S(=O)(=O)N2CCOCC2)cc1NC(=O)CSc1ccc(Cl)cc1	nt	nt	nt	0.3	1.6
O=C(/C=C/c1ccc(F)cc1)N1CCCc2ccccc21	-3.4%	nt	-5.0	-2.7	3.4
COc1cccc(OC)c1NC(=O)C1CCCN1C(=O)NCc1ccccc1 (centres undefined)	0.8%	-25.5	9.3	-3.3	-2.8
CC(C)(C)C(=O)Nc1ccnn1C1CCN(C(=O)c2cccc(Cl)c2)CC1	nt	nt	nt	?	-0.2
CC(=O)Nc1ccc2nc(NC(=O)c3ccc([N+](=O)[O-])o3)sc2c1	nt	nt	nt	44.5	-6.7
O=C(C[C@H]1C(=O)N(c2ccc(F)c(F)c2)C[C@@H]1Cc1ccccc1)Nc1ccccc1	nt	nt	nt	-8.2	6.3
COc1ccccc1N1CCN(S(=O)(=O)CCNC(=O)c2cc(OC)c(OC)c(OC)c2)CC1	nt	nt	nt	4.6	1.5
O=C(C1CCCN1S(=O)(=O)c1ccc(Cl)c(Cl)c1)N1CCOCC1 (centres undefined)	1.7%	-3.0	2.0	8.9	-3.2
CC(=O)Nc1ccc(S(=O)(=O)N(CCCN2CCOCC2)Cc2cccs2)cc1	1.6%	nt	6.0	-8.7	-0.3
O=C(Nc1nccs1)c1cc(Cl)ccc1[N+](=O)[O-]	3.2%	-23.6	-12.1	-1.1	-2.0
COCCn1c(SCc2ccc(C(=O)OC)o2)nnc1-c1c[nH]c2ccccc12	0.2%	nt	0.3	35.5	0.0
NS(=O)(=O)c1ccc(NC(=O)COC(=O)CSc2n[nH]c(-c3ccccc3)n2)cc1	-6.3%	-35.3	1.7	4.9	0.5
Cc1ccc(NC(=S)N2CCC(NC(=O)C3CCCCC3)CC2)cc1C	nt	nt	nt	-1.5	-0.2
CN(Cc1nc(-c2ccc(Cl)cc2)no1)C(=O)c1ccco1	nt	nt	nt	0.7	0.1
CCOC(=O)C1=C(C)N(C)C(=S)N(C)C1c1ccc(OC)cc1 (centres undefined)	7.5%	nt	11.5	-11.3	4.5
Cc1cc(C)nc(N2CCN(c3ccc(F)cc3)CC2)n1	nt	nt	nt	-2.0	2.1
O=C1c2oc3ccc(Cl)cc3c(=O)c2C(c2cccc(Br)c2)N1CCO (centres undefined)	7.4%	-17.3	8.6	7.6	1.0
Cc1ccc(/C=N/NC(=O)NN(C)c2ncc(C(F)(F)F)cc2Cl)cc1	5.7%	nt	3.1	-1.3	-0.8
CCC(C)Sc1nc2c(c(=O)[nH]c(=O)n2C)n1CC(O)COc1ccccc1C (centres undefined)	1.8%	31.9	3.7	5.3	-0.5
COc1ccccc1CNC(=O)CC1Sc2ccccc2NC1=O (centres undefined)	-2.6%	nt	16.7	-0.5	1.4
O=C(NNC(=O)C1CCC1)c1ccc(Cl)cc1	nt	nt	nt	-8.5	1.5
CC1(C)NC(=O)N(CC(O)CN2C(=O)NC(C)(C)C2=O)C1=O	-11.3%	-50.5	2.8	0.4	0.4
O=C(O)c1cc(-c2ccc3c(c2)OCCO3)n[nH]1	-10.8%	nt	0.4	-1.0	1.4
Cc1ccc(-c2nnc(NC3CCCC3)s2)cc1	nt	nt	nt	3.1	4.4
O=[N+]([O-])c1cc(C(F)(F)F)ccc1NCCOc1ccccc1	1.3%	-29.3	-7.7	7.1	1.0
Cc1cc(C)n2nc3nc(N4CCCCC4)nc(-c4ccco4)c3c2n1	8.1%	nt	2.8	-2.9	-11.5
CCC(C)(C)n1nnnc1C(c1cc2ccc(OC)cc2[nH]c1=O)N1CCCCC1 (centres undefined)	-4.4%	10.8	-6.6	4.8	2.4
COc1ccc(Cc2nc3ccc(C(=O)N4CCN(C)C(C)C4)cc3o2)cc1OC (centres undefined)	nt	nt	nt	-6.4	-2.9
CN(C)c1ccc(-c2ccc3c(=O)c4ccccc4n(C)c3c2)cn1	nt	nt	nt	-9.7	-14.4
Cc1ccc(C)c(S(=O)(=O)N2CCN(C(=O)c3ccc(N4CCCC4)c([N+](=O)[O-])c3)CC2)c1	nt	nt	nt	2.5	6.4
COc1cc(OC)cc(C(=O)N[C@H](C(=O)OCC(=O)Nc2cccc(F)c2)C(C)C)c1	-0.3%	-23.4	-9.5	5.8	4.0
CC(=O)n1c2ccccc2c2nc3ccccc3nc21	nt	nt	nt	-0.7	-2.8
COc1cccc(-c2cc(C(=O)Nc3ccc4c(c3)OCCO4)c3ccccc3n2)c1	nt	-27.0	0.9	nt	-3.2
Cc1occc1-c1nnc(SCC(=O)Nc2ccccc2-c2ccccc2)n1C	-2.2%	-47.5	5.6	-7.9	1.9
CN(CC(O)Cn1c2ccccc2c2ccccc21)S(C)(=O)=O (centres undefined)	2.3%	nt	2.0	-2.7	-1.4
COc1ccc(/C=C(\NC(=O)c2ccc(C)cc2)C(=O)N2CCCCC2)cc1	nt	nt	nt	2.6	-0.4
CC(Oc1ccc(Cl)cc1Cl)C(=O)NNC(=O)[C@@H]1CCCC[C@@H]1C(=O)O (some centres undefined)	nt	nt	nt	-6.4	-1.5
Cc1ccc(NC(=O)CCN2C(=O)C3C4CCC(C4)C3C2=O)cc1[N+](=O)[O-] (centres undefined)	nt	nt	nt	?	-1.7
CCCCn1c(=O)c(C(=O)NCc2ccc(Cl)cc2)c(O)c2ccccc21	nt	nt	nt	0.8	-1.6
COc1ccc2[nH]c3c(c2c1)CCN1C(=O)N([C@@H](C)C(=O)NCc2ccc(F)cc2)C(=O)[C@]31C	nt	nt	nt	-4.8	-0.1
COC(=O)CON1C(=O)c2ccccc2C1=O	-11.1%	-11.6	0.7	4.0	-0.2
(cont.)
SMILES	Mtb growth	YopH inh	Arbovirus inh	Mtb betalactam	RecA intein inh	others
CN1C(=O)CSC1=Nc1ccc(F)cc1	nt	nt	nt	0.0	-1.2
OC1(c2ccccc2)CCN(Cc2ccccc2)C2CCCCC21 (centres undefined)	7.3%	-6.8	28.2	-3.5	-4.4
Cc1nc(NC(=O)CSc2nnc(C3CC3)n2C)sc1C	nt	nt	nt	-0.2	2.0
COc1ccc(-n2c(=O)c3c(C)c(C)sc3n(Cc3ccc(F)cc3)c2=O)c(OC)c1	8.4%	nt	-1.2	2.0	4.5
CCN(CC)C(=O)c1ccc2nc3ccccc3nc2c1	15.5%	-15.1	0.7	10.1	-0.2
Cc1c(C(=O)Nc2ccccc2)csc1-c1ccccc1	2.3%	-31.9	-5.5	8.0	-0.2
O=C(Nc1ncc2c(n1)-c1ccccc1OC2)c1cccc([N+](=O)[O-])c1	0.0%	nt	3.6	0.9	0.8
O=S(=O)(c1ccc(Br)s1)n1cccn1	3.3%	-44.1	0.7	-2.3	-2.9
CCOc1ccc(NC(=O)CCc2c(C)nn(-c3ccc(N4CCCCC4)nn3)c2C)cc1	nt	nt	nt	1.2	-2.6
Cc1ccc(-c2nn[nH]n2)cc1	6.5%	-42.4	3.5	-6.5	-3.9
CCOC(=O)CC(c1ccc(N)cc1)n1c(C)ccc1C (centres undefined)	26.5%	nt	-10.0	47.5	10.3
Cc1cccc(N(Cc2ccccc2)C(=O)c2cc(S(=O)(=O)N3CCOCC3)ccc2Cl)c1	nt	nt	nt	-6.3	4.5
COc1ccc(-n2nc(C(=O)NCC(=O)NCCC3=CCCCC3)c3ccccc3c2=O)cc1	nt	nt	nt	2.6	1.9
CN1C(=O)c2c(sc3c2CC(C)(C)SC3)N2CCN=C12	0.0%	nt	nt	-1.8	-0.6
O=C1COc2ccc(S(=O)(=O)CCC(=O)NC3CCCCC3)cc2N1	nt	nt	nt	-1.6	1.8
Cc1ccc(C(=O)N[C@H](C(=O)OCc2cc(=O)n3c(n2)sc2ccccc23)C(C)C)cc1	76.6%	-18.2	11.1	96.0	0.8
CC(C)CC(=O)/C(=C\c1ccc(Cl)cc1Cl)n1cncn1	?	-4.0	-44.9	nt	43.5*
N#Cc1c2n(c3c(=O)n(CC(=O)c4ccc(Br)cc4)cnc13)CCCC2	1.6%	-21.8	9.4	6.9	-0.2	Arbovirus inh repeat=1.4
CCn1c(SCc2cccnc2)nc2c1c(=O)n(C)c(=O)n2C	-4.6%	-15.6	4.7	-9.5	-1.5
Cc1noc(C(=O)Nc2ccc(Cl)cc2)c1Cl	nt	nt	nt	-6.4	-0.3
COc1ccccc1CNC(=O)C(C)c1ccc([N+](=O)[O-])cc1 (centres undefined)	43.8%	nt	3.9	5.4	-2.2
Cc1cnc(CN2CCc3c([nH]c4ccccc34)C2CC(C)C)[nH]1 (centres undefined)	49.6%	nt	2.7	-6.7	-4.2
C/C(=N\NC(=O)Cn1nc(C)cc1C)c1ccc([N+](=O)[O-])cc1	0.8%	nt	nt	-0.5	2.8
COc1cc(C(=O)NC(=S)Nc2ccc(N3CCCC3)cc2)cc(OC)c1OC	0.6%	-9.3	-7.4	4.2	-1.9
O=C(CSc1nnc(-c2ccccc2)n1Cc1ccccc1)NC1CC1	1.6%	-19.5	12.6	5.8	1.6
CC(=O)NCCc1nc2cc(NC(=O)c3ccc(F)cc3)ccc2n1C	nt	nt	nt	-1.1	-1.8
